Screens deposited in PubChem by several laboratories.
VCAM-1 rise = boosters of cytokine-driven VCAM-1 levels – cell-based, plate reader, pooled HUVEC, TNFa stimulus (AID 455) | HUVEC TNFa-induced VCAM-1 immunofluorescence, plate reader; numbers were filed only for top-ranked candidate wells | augmentation, % at 5 µM | actives 0.2% (n = 10,000);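 active = a compound raising TNF-alpha-driven VCAM-1 surface staining, with its hit status upheld on visual or statistical review; inactive = the rest, including hits rejected on review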;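 also: 0% = TNFa with vehicle and 100% = strongest image-checked hit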
26S disassembly = blocks ATP-dependent breakdown of the yeast 26S proteasome. anti-FLAG beads, GFP-proteasome disassembly, flow cytometry. inhibition of disassembly, % (no concentration beside the values). actives 0.2% (n = 24,000);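 active = above 40%; inconclusive = likely self-fluorescent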;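 also: plate controls were ATP control with full disassembly for no effect and ATP-gamma-S intact proteasomes for full effect; higher percent means more bead fluorescence retained so stronger block of disassembly; stock transfer was 100 nL into about 10 µL; wells with too few beads may also be inconclusive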
* hit, by the source's call; i = inactive; ? = inconclusive; nt = not tested or not shown. These rows are one share of the data; rates above refer to the full screens.

VCAM-1 rise | 26S disassembly | SMILES
i | -0.6 | C=C(C)Cn1c(N2CC(C)CC(C)C2)nc2c1c(=O)[nH]c(=O)n2C (configuration not stated)
i | -0.2 | COc1ccc(-c2nnn(CCc3nn[nH]n3)n2)cc1OC
nt | -1.2 | Cc1cc(=S)[nH]c2ccccc12
nt | -2.4 | CCC(=O)N1CCCc2cc(S(=O)(=O)N3CCN(C4CCCCC4)CC3)ccc21
nt | 0.6 | Cn1c(C(=O)N2CCN(c3ccccn3)CC2)cc2c(=O)n(C)c3ccccc3c21
i | 1.4 | C[N+]1=C2CCCCCN2C(O)(c2ccccc2)C1 (configuration not stated)
nt | 1.5 | CC1CN(C(=O)c2cc3c(=O)n4ccccc4nc3s2)CC(C)O1 (configuration not stated)
nt | 1.2 | COC(=O)c1ccc2nc(NC(=O)CN3C(=O)CCC3=O)sc2c1
nt | -1.0 | Cc1cccc(-n2ccnc2SCC(=O)Nc2nccs2)c1
nt | -3.8 | O=C(c1ccco1)N1CCN=C1SCc1ccccc1F
nt | -0.2 | O=C(Oc1cccc(Br)c1)c1cccnc1
i | 0.7 | O=c1c(F)cn(C2CCCO2)c(=O)n1Cc1c(F)cccc1Cl (configuration not stated)
nt | -1.6 | Cc1nc2cc(Cl)c(Cl)cc2nc1C
nt | ? | CCOC(=O)N1CCN(C(=O)COc2ccc3c(c2)C(=O)CC2(CCN(C(C)=O)CC2)O3)CC1
i | 3.4 | COc1ccc(/C=N/n2cc(-c3ccc(OC)cc3)nc2N)cc1
i | 0.0 | CCC1SC2=NC(C)=C(C(=O)OC)C(c3ccc(C)cc3)N2C1=O (configuration not stated)
i | -1.9 | O=C(NCc1ccco1)c1cnc2n(c1=O)CCS2
nt | -1.4 | Cc1noc(C)c1S(=O)(=O)Nc1ccc(C(=O)NC2CCCCC2C)cc1 (configuration not stated)
nt | 0.0 | CCCS(=O)(=O)N1CCCC(C(=O)NCc2ccc(C)cc2)C1 (configuration not stated)
i | 0.1 | COc1cccc(NC(=O)CSc2nnnn2C(C)C)c1
nt | -0.8 | CC(C)N(CCc1ccncc1)C(=O)Nc1ccc(F)cc1
i | -3.2 | Cc1ccc(S(=O)(=O)N2CCN(C(=O)N3CCOCC3)C2C)cc1 (configuration not stated)
i | 0.1 | O=C(NCN1CCCCC1)c1cnccn1
nt | 0.9 | CC1CCCCC1NC(=O)C1CCN(S(=O)(=O)c2ccc3c(c2)CCC(=O)N3)CC1 (configuration not stated)
nt | -0.4 | CCOC(=O)Cc1csc(NC(=O)c2cccc(N3C(=O)CCC3=O)c2)n1
nt | -0.7 | COc1ccc(C)c(S(=O)(=O)Nc2ccc(OCC(=O)O)cc2)c1
nt | 0.9 | CCOC(=O)N1CCN(CC(O)COC2CC(C)CC(C)(C)C2)CC1 (configuration not stated)
nt | 2.8 | CCOc1ccc(CCN2C(=O)CCC2(C)C(=O)NC(C)CC)cc1OCC (configuration not stated)
nt | 0.8 | O=C(CSc1nnc(Cn2c(=O)sc3ccccc32)n1-c1ccccc1)NCc1ccco1
i | -0.1 | CN(Cc1ccccc1)Cc1nc2c([nH]1)c(=O)[nH]c(=O)n2C
i | 3.2 | Fc1ccc(-c2ccc(-c3nn4c(-c5ccco5)nnc4s3)o2)cc1
nt | 1.3 | CCOC(=O)c1c(NC(C)=O)sc2c(O)c(CN3CCN(CC)CC3)ccc12
nt | -0.9 | Cc1ccc(NC(=O)CCNS(=O)(=O)c2cccc3nonc23)cc1
nt | 1.8 | COc1ccc(-n2c(Cc3cccn3C)nnc2SCC(=O)Nc2cc(Cl)ccc2OC)cc1
i | -4.9 | COc1ccccc1C(=O)NCCNC(=O)c1ccco1
i | 1.3 | O=C(c1ccc(Br)o1)N(Cc1ccccc1)c1ccccn1
i | 0.1 | CCOC(=O)c1ccccc1NC(=O)c1cccnc1
nt | ? | CCOC(=O)c1[nH]c2c(c1C)C(=O)CC(c1ccco1)C2 (configuration not stated)
nt | 0.2 | CCOC(=O)c1oc2ccccc2c1NC(=O)c1cccc(OC)c1
nt | -3.4 | CCN1CCN(C(=O)c2ccc3c(=O)n(Cc4ccccc4OC)c(=S)[nH]c3c2)CC1
nt | -3.9 | O=C1NCCCc2c1oc1ccc(O)cc21
i | -0.2 | COc1ccc(OC)c(C(=O)c2coc3ccc(O)c(CN4CCOCC4)c23)c1
i | 0.7 | O=S(=O)(NCc1ccccc1)c1ccc2c(c1)OCCO2
i | -0.2 | COCCn1nnnc1C(c1cc2cc(C)cc(C)c2[nH]c1=O)N1CCN(c2ccccc2F)CC1 (configuration not stated)
i | -2.6 | Cc1ccc(Cn2c(C)nc3c(c2=O)c2nc4ccccc4nc2n3Cc2ccco2)cc1
nt | 3.9 | Cc1ccccc1-c1nc(CN2CCCC(C(=O)NCCCN3CCOCC3)C2)c(C)o1 (configuration not stated)
nt | 0.0 | CC(O)CNc1ncnc2nc[nH]c12 (configuration not stated)
nt | -0.7 | CCN(CCCNC(=O)CN1C(=O)COc2ccccc21)c1cccc(C)c1
i | -2.9 | CC1CCN(C(=O)Cn2cc3c(n2)CCCC3)CC1
i | 0.7 | COc1cc(C2c3c(n[nH]c3C)C(=O)N2c2ccc(Br)cc2)ccc1O (configuration not stated)
i | 0.3 | c1ccc2c(c1)CNc1ccccc1C2
nt | -2.7 | O=C1NC(=O)C(CC(=O)N(Cc2ccco2)C2(C(=O)NC3CCCCC3)CCCCC2)N1 (configuration not stated)
i | -0.2 | CCOc1ccccc1C1CC(=O)Nc2cc3c(cc21)OCO3 (configuration not stated)
i | 10 | COc1ccc2c(C(=O)CN(C)C3CCCCC3)c[nH]c2c1
nt | -1.5 | CCC(C)C(NS(=O)(=O)c1ccc(C)cc1)C(=O)NCCN1CCOCC1 (configuration not stated)
nt | -0.6 | NC(=O)C1(N2CCCCC2)CCN(C(=O)CCCn2c(=O)[nH]c3ccsc3c2=O)CC1
nt | 0.0 | COc1ccc(CC(=O)Nc2ccc(-c3noc(-c4cc(OC)c(OC)c(OC)c4)n3)cc2)cc1
i | -1.2 | COCCn1nnnc1C(C(C)C)N1CCN(C(=O)c2ccco2)CC1 (configuration not stated)
i | -0.6 | Cn1c(=O)n(CCC(=O)O)c2ccccc21
i | 0.1 | Cc1cc(=O)oc2cc(OCC(=O)OCc3nnc(-c4ccccc4)o3)ccc12

Exported with each value named: entries from further up.
COc1cccc(NC(=O)CSc2nnnn2C(C)C)c1
  VCAM-1 rise: i
  26S disassembly: 0.1

CCOC(=O)c1[nH]c2c(c1C)C(=O)CC(c1ccco1)C2 (configuration not stated)
  VCAM-1 rise: nt
  26S disassembly: ?

Cc1ccc(S(=O)(=O)N2CCN(C(=O)N3CCOCC3)C2C)cc1 (configuration not stated)
  VCAM-1 rise: i
  26S disassembly: -3.2

CCOC(=O)c1oc2ccccc2c1NC(=O)c1cccc(OC)c1
  VCAM-1 rise: nt
  26S disassembly: 0.2

A run of entries from the list above, for reference:
VCAM-1 rise | 26S disassembly | SMILES
i | -0.6 | C=C(C)Cn1c(N2CC(C)CC(C)C2)nc2c1c(=O)[nH]c(=O)n2C (configuration not stated)
i | -0.2 | COc1ccc(-c2nnn(CCc3nn[nH]n3)n2)cc1OC

More records follow:
VCAM-1 rise | 26S disassembly | SMILES
nt | 1.2 | O=C(CCn1c(=S)[nH]c2cc3c(cc2c1=O)OCO3)N1CCN(c2ccccn2)CC1
i | -1.2 | C=CCn1c(SCC(=O)Nc2cccc(OC)c2)nnc1-c1cccnc1
i | 1.3 | Cc1cc(C)nc(N2CCC(C(=O)NC3CCCCCC3)CC2)n1
i | 1.8 | O=C(Nc1nccs1)NC(C(F)(F)F)C(F)(F)F
i | -0.4 | Cc1cc(NC(=O)CCC(=O)N(CC2CCCO2)C(C(=O)NC2CCCC2)c2ccccc2C)no1 (configuration not stated)
nt | 1.0 | Cc1ccc(NC(=O)COc2ccc(/C(N)=N/O)cc2)cc1C
i | 5.0 | Cc1cc(NS(=O)(=O)c2ccc(NC(=O)COc3ccc(Cl)cc3)cc2)no1
nt | 0.6 | CCn1cc(S(=O)(=O)CC(=O)Nc2ccc3c(c2)OCCO3)c2ccccc21
nt | -0.1 | CCC(C)N1CC23C=CC(O2)C(C(=O)OC)C3C1=O (configuration not stated)
i | -0.9 | CCCCn1c(NCCC)nc2c1c(=O)[nH]c(=O)n2C
nt | -0.8 | COC(=O)c1cc2ccsc2n1Cc1cc(=O)n2ccccc2n1
nt | -0.7 | COc1ccc(S(=O)(=O)NC(CC(=O)NCCc2ccc(OC)c(OC)c2)c2ccco2)cc1 (configuration not stated)
nt | 97* | Fc1ccc2nc(Nc3nc4c(s3)CCCC4)sc2c1
nt | -0.4 | CCOc1ccc(-n2c(=O)c3c4c(sc3n(CC(=O)NCc3ccco3)c2=O)CCC4)cc1
i | -1.0 | CCCCn1c(SCC(=O)Nc2ccc(OC)cc2)nc2ccc(N3CCOCC3)cc2c1=O
i | 0.9 | CC12CN3CCN(CC(C3)C1(O)CN1CCCCC1)C2 (configuration not stated)
i | 0.4 | O=C(Nc1cccc2ccccc12)c1cnccn1
i | -1.0 | Cc1cc(C)cc(N2CCCn3c2nc2c3c(=O)n(CCN3CCOCC3)c(=O)n2C)c1
nt | -0.5 | O=C(Nc1ccc(Cl)c(Cl)c1)N1CCC(N2CCCCC2)CC1
nt | 2.1 | Cc1ccc(Cl)cc1N1CCN(C(=O)CCS(=O)(=O)c2cccc3nonc23)CC1
i | -0.5 | Cc1csc(NC(=O)C2CCCO2)n1 (configuration not stated)
nt | 0.7 | Cc1ccc(-c2nn3c(C)nnc3s2)cc1NC(=O)c1ccc(OC(C)C)cc1
nt | 26 | COc1ccc(OC)c(N=Cc2c(O)[nH]c3ccccc23)c1
i | -0.5 | CCCCc1nc2n[nH]c(N)c2c2c1CCCC2
nt | -0.3 | CC(=O)N1CCc2cc(Br)cc(S(=O)(=O)N3CCCCCC3)c21
i | -1.8 | c1ccc(-c2nc3cnccn3c2Nc2ccc3c(c2)OCCO3)cc1
nt | -0.7 | CCc1nc(SCC(=O)Nc2ccc(C(=O)O)cc2)n[nH]1
nt | 2.9 | Cc1ccc(C)c(N2CCN(C(=O)C3CCCN(S(=O)(=O)c4c(C)noc4C)C3)CC2)c1 (configuration not stated)
nt | -0.1 | CCCN1CCN(C(=O)CN2C(=O)CC(C)(C)S(=O)(=O)c3ccccc32)CC1
i | 2.2 | COc1ccc(-c2nc(CSCC(=O)N3CCc4ccccc4C3)c(C)o2)cc1OC
nt | 0.5 | CCCCN(C)C(=O)c1sc2ncn(CC)c(=O)c2c1C
nt | -1.0 | COc1ccccc1-n1c(CNC(=O)COc2ccccc2)n[nH]c1=S
i | 0.7 | COc1ccc(CCN(C)CCCC(C#N)(c2cc(OC)c(OC)c(OC)c2)C(C)C)cc1OC (configuration not stated)
i | -9.4 | Cc1nc2sc(C#N)c(N)c2c2c1CCCC2
nt | 0.5 | Cc1nc2c(-c3ccccc3)c(C)nn2c(C)c1CCC(=O)N1CCOCC1
i | 0.8 | O=C(OCCCCN1C(=O)c2ccccc2C1=O)c1n[nH]c2ccccc12
i | 0.4 | O=C(NCc1nnc(SCC(=O)N2CCCCCC2)o1)c1ccco1
nt | -0.2 | CCOc1ccc(N(CC(=O)Nc2ccccc2C)S(=O)(=O)c2c(C)noc2C)cc1
nt | -0.2 | CCc1cc2c(cc3c(=O)n(CC(=O)N4CCN(c5ccccn5)CC4)nc(CC)n32)s1
nt | 0.8 | COc1ccccc1N1CCN(CC(=O)c2ccc3ccn(C(C)=O)c3c2)CC1
i | 0.5 | O=C(OCC#CCSc1nnc(-c2ccncc2)o1)c1cccs1
nt | 3.3 | Cc1cc(NC(=O)CC(CN(C)S(=O)(=O)c2ccccc2)c2ccccc2)no1 (configuration not stated)
i | -2.0 | CCOc1cc(C2/C(=C(/O)c3ccc(OC(C)C)cc3)C(=O)C(=O)N2CCCOC)ccc1O (configuration not stated)
i | -1.2 | CCCC(=O)Nc1ccccc1NC(=O)CCC
nt | 0.2 | Cc1nc2sc(C(c3ccccc3)N3CCN(C(=O)c4ccco4)CC3)c(O)n2n1 (configuration not stated)
i | 1.4 | Cc1nc(NC(=O)C2CC3CCCC(C2)C3=O)sc1C (configuration not stated)
nt | -1.7 | OC(Cc1nc2ccccc2[nH]1)c1ccccc1Cl (configuration not stated)
i | 2.8 | Cc1ccc(-c2nn3c(C)nnc3s2)cc1N
nt | 5.8 | O=C(CCCn1c(=S)[nH]c2cc3c(cc2c1=O)OCO3)NC1CC1
nt | 0.3 | CC(=O)Nc1ccc(S(=O)(=O)N2CCN(C34CC5CC(CC(C5)C3)C4)CC2)cc1
i | 0.9 | COc1cccc(CN2CCN(C(=O)c3ccco3)CC2)c1OC
nt | 0.8 | O=C(O)Cc1coc(-c2ccc(F)cc2)n1
nt | 1.4 | c1ccc(N2CCN(c3nnc(Cc4cccnc4)c4ccccc34)CC2)nc1
nt | -0.1 | COc1ccccc1-n1cnc2cc(C(=O)NCC3CCCO3)ccc21 (configuration not stated)
nt | 1.8 | CCOC(=O)CN1CC23C=CC(O2)C(C(=O)NCCc2ccccc2)C3C1=O (configuration not stated)
nt | 0.2 | c1ccc2c(c1)nc(Nc1ccc3c(c1)OCO3)c1nnnn12
nt | 6.9 | O=C(NCCCN1CCCCCC1)c1ccc(CS(=O)(=O)Cc2ccccc2F)o1
i | 1.0 | O=S(=O)(Cc1ccc(Cl)cc1)Nc1ccc2c(c1)OCO2
nt | 0.5 | Cc1onc(-c2ccccc2Cl)c1C(=O)NCc1cccs1
nt | -1.0 | Cc1ccccc1Cn1c(=O)n(CCCC(=O)NCc2ccco2)c(=O)c2ccccc21
i | 2.3 | COc1ccc(CCNc2oc(COc3ccc(F)cc3)nc2C#N)cc1
i | -0.4 | COC(=O)C1=CN(C(C)C)C=C(C(=O)OC)C1c1cc2c(cc1Br)OCO2
nt | 0.2 | c1ccc(N(c2ccccc2)c2nc(N3CCCC3)nc(-n3ccnc3)n2)cc1
